T cruzi inh: T. cruzi replication inhibition | actives 1.4% (n = 300,000) | inhibition, % (test concentration not listed) | AID 1885 | T. cruzi beta-gal in NIH3T3, luminescence, 90 h;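 active means mean inhibition across valid replicates above about 55%, limit read from the data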;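 further: signal also drops with host cell toxicity which is not excluded here; 0% = plate median of DMSO wells and 100% = zero luminescence signal; higher percent means less beta-gal luminescence so fewer parasites; stock transfer was 50 nL into about 50 µL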
A1 inh: inhibitors of the anti-apoptotic protein A1, read as caspase activation; MEF A1-2A-BIM cells, Caspase-Glo 3/7 luminescence, 3 h; percent of clofoctol response, vehicle zero; actives 0.066% (n = 330,000); caspase activation, % (no concentration beside the values); AID 2462;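 active means over half of replicate activation scores above 10%, or exactly half above 10 with the replicate mean above 10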;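 further: wells of about 30 µL received 50 nL stock; many hits fall short of the cut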
rRNA inh HTS: inhibitors of bacterial rRNA selective over humanized ribosomes. E. coli WT GFP vs humanized-ribosome RFP mutants, fluorescence, 24 h; hits give low values; DMSO median 0, no signal -100. GFP signal change (wild-type ribosome), % (test concentration not listed). actives 1.6% (n = 350,000). AID 720706;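 active means significant combined selectivity score with lowered wild-type GFP, culture density cut under 30%, mutant RFP and density less affected; inactive means any of these conditions unmet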; further: one replicate is shown; some compounds called inactive have numbers as strong as hits
ALR inh: human ALR oxidase inhibition via reduced H2O2; P55789; purified ALR, DTT oxidation, H2O2 HRP-luminol luminescence; inhibition, % (concentration not given with the values); actives 3.8% (n = 290,000);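 active means mean and each replicate at 75% or more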;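 further: stock transfer was 7.5 nL into about 7.5 µL; 0% = neutral wells and 100% = wells with inactivated enzyme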
Target sequence (P55789 whole entry, looked up): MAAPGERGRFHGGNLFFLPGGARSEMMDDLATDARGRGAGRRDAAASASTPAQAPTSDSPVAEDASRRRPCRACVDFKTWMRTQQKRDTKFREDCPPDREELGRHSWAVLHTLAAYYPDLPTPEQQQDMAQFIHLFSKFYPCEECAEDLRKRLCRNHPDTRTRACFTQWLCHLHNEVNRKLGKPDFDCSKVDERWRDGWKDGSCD
Calb FLC: C. albicans growth modulation with fluconazole | growth inhibition, % (concentration not given with the values) | actives 0.57% (n = 300,000) | C. albicans CaCi-2 (fluconazole-resistant clinical isolate) + fluconazole, Alamar Blue growth, 48 h | AID 1979;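 active means most replicates above 75%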;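 further: all wells also contain fluconazole at 8 µg/ml as a sub-toxic cotreatment; 0% = median of DMSO wells and 100% = median of geldanamycin control wells; wells of about 8 µL received 7.5 nL stock; the first replicate is given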
B2AR ag: human beta-2 adrenergic receptor agonism by FAP. P07550. Am2.2-beta2AR cells, FAP receptor internalization, flow cytometry; reference of the scale not given here. response, % (no concentration beside the values). actives 0.43% (n = 340,000). AID 504454;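 active means response above a set limit, near 3 SD of response in nonfluorescent compounds, cut at about 42% in these data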;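 further: stock transfer was 100 nL into about 11 µL; a reference agonist was the positive control; negative values mostly stem from fluorescent compounds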
Target sequence (P07550 whole entry, looked up): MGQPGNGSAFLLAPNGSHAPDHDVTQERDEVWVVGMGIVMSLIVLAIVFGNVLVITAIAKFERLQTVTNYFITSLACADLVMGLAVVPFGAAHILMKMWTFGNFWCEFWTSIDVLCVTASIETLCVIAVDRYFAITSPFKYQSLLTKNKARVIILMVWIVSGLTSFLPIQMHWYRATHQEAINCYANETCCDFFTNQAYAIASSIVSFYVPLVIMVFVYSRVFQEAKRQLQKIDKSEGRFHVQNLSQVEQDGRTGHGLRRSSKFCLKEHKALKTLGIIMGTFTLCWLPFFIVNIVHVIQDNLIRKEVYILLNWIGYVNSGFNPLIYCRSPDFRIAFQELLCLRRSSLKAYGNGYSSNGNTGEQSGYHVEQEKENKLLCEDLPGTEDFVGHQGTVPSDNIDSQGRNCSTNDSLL
LANA-H2A inh: blocks KSHV LANA binding to histone H2A/H2B; Q9QR71; cell-free LANA-H2A/H2B peptide, fluorescence polarization; inhibition, % (no concentration beside the values); actives 0.6% (n = 320,000); in the data active means inhibition mostly above about 10%, no sharp cut-off; inactive means mostly below about 6.7%;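 further: stock transfer was 7.5 nL into about 10 µL; 0% = median of vehicle wells and 100% = median of positive control wells; one replicate is shown; the record names a cut of 25% in any replicate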
Beta cell apopt: blocks beta cell apoptosis; INS-1E cytokine-induced death, ATP luminescence, 48 h; percent of positive-control rescue, neutral wells zero; protection from apoptosis, % (test concentration not listed); actives 0.8% (n = 300,000);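 active means all replicates at 75% or more, or half of them and the mean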;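 further: 0% = cytokine-treated negative control wells and 100% = positive control rescue; higher means more ATP so stronger rescue from cytokine killing; wells of about 40 µL received 100 nL stock; the first replicate is given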
rRNA inh HTS OD600: also measured in rRNA inh HTS; calls as there; OD600 change, %; measured here: OD600 growth;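 optical density of the mix in the first replicate; 0 = DMSO median and -100 = no signal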
rRNA inh HTS RFP: second read-out of rRNA inh HTS, no call of its own (marks repeat the call); RFP signal change, %; measured here: RFP humanized mutant strains;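 first replicate; 0 = DMSO median and -100 = no signal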
* marks the source's active call; other numbers are inactive results; i = inactive; · = not tested or not shown; & = joins results of further samples.

SMILES	T cruzi inh	A1 inh	rRNA inh HTS	rRNA inh HTS OD600	rRNA inh HTS RFP	ALR inh	Calb FLC	B2AR ag	LANA-H2A inh	Beta cell apopt
CCN1CCN(c2cc(=O)n(C3CCCCC3)c(=O)[nH]2)CC1	-21	-0.2	8	16	-1.3	8	13	-4	4.3	-3
O=C1[C@@H]2Cc3c([nH]c4ccccc34)C(c3ccccc3)N2C(=O)CN1CCO (stereo partly drawn)	-4	1.8	16	9	2.9	54	-7	5	1.9	-2
COc1cccc(NC(=O)CN2C(=O)CSc3ccc(S(=O)(=O)N4CCOCC4)cc32)c1	-2	-0.1	3	11	3.0	-2	-8	0	-1.3	-4
CCc1nnc(NC(=O)CCc2ccc(C)o2)s1	-3	1.7	·	·	·	1	-2	19	0.4	-3
CCOCCn1ccc2c(OCC(=O)Nc3ccc(OC)cc3OC)cccc2c1=O	21	-1.3	1	3	-2.3	11	8	19	-4.1	·
COC(=O)c1ccccc1S(=O)(=O)N1CCC(C(=O)NCC2CCCO2)CC1 (stereo not drawn)	2	0.9	10	14	-0.2	·	1	2	0.2	·
O=C(O)C(Cc1ccccc1)N1C(=O)c2c(Cl)c(Cl)c(Cl)c(Cl)c2C1=O (stereo not drawn)	1	0.2	-32	-26	2.6	-4	-2	0	4.0	·
CCOC(=O)c1cc(CC)sc1N1C(=O)CC(Sc2ncccc2C(=O)O)C1=O (stereo not drawn)	-20	0.8	6	3	-3.2	-6	-19	-2	1.6	1
O=C(NC(=S)Nc1ccccc1N1CCCC1)c1ccc([N+](=O)[O-])cc1	-3	0.7	·	·	·	57	7	-11	-0.2	·
Cc1ccc(C(c2nnnn2CC2CCCO2)N2CCN(c3cccc(C)c3C)CC2)cc1 (stereo not drawn)	23	-0.2	·	·	·	-7	6	5	10	-5
Cc1ccc(-c2nn(-c3ccccc3)cc2CC(=S)N2CCOCC2)cc1	21	0.1	-5	-4	-3.9	-2	-8	-5	-3.1	0
COc1ccccc1NC(=O)c1nc(S(=O)(=O)Cc2ccccc2)ncc1Cl	38	0.1	9	8	-2.6	4	-7	11	7.2	77*
Cn1c2ccc(F)cc2c2nnc(SCCN3CCCCC3)nc21	22	·	-4	0	-1.3	·	-9	-8	·	·
COC(=O)C1CCN(C(=O)c2ccccc2NC(C)=O)CC1	-16	0.3	·	·	·	-12	-10	1	-1.9	-5
OCCC1CN(Cc2ccccc2O)CCN1CCc1ccccc1 (stereo not drawn)	11	-0.3	11	8	2.3	13	-1	-4	-1.3	-4
Cc1cc(C(=O)Nc2ccc(Br)cc2F)n(-c2ccccc2)n1	8	1.0	-7	-12	-2.5	·	0	-6	-1.9	5
Cc1cccc(-n2c(N)cc(=O)[nH]c2=S)c1	-6	0.6	·	·	·	11	27	0	0.6	-7
CN(C)CCC(O)(c1ccccc1)c1ccccc1	-28	1.3	·	·	·	-6	-18	-2	-3.2	1
Cc1cc(OC(=O)c2ccc(C)c(C)c2)c([N+](=O)[O-])c(=O)[nH]1	-17	0.8	5	-1	-0.2	4	-4	-6	0.4	2
COc1ccc(NC(=O)NC23CC4(C)CC(C)(CC(C)(C4)C2)C3)cc1	15	0.9	·	·	·	2	-3	4	-9.3	3
Clc1ccc(-c2ccc(CN3CCCCC3)o2)cc1	31	0.1	-5	-7	6.2	13	-25	-2	1.0	0
COc1ccccc1NC(=O)N1CCN(c2ccc(F)cc2)CC1	-1	0.8	·	·	·	32	1	-4	1.1	0
Cc1ccc(C(=O)N/C(=C/c2ccco2)C(=O)O)cc1	-12	0.2	·	·	·	68	1	-2	-0.7	-3
NS(=O)(=O)c1cccc(NS(=O)(=O)c2ccc(/C=C/C(=O)OCC(=O)c3ccccc3)cc2)c1	-12	0.3	-1	-1	3.6	·	-2	3	4.7	-26
O=S(=O)(Nc1cccc(C(F)(F)F)c1)c1cccnc1	-7	0.1	·	·	·	·	21	2	·	2
Carrying on.
SMILES	T cruzi inh	A1 inh	rRNA inh HTS	rRNA inh HTS OD600	rRNA inh HTS RFP	ALR inh	Calb FLC	B2AR ag	LANA-H2A inh	Beta cell apopt
Cc1cc(C)c(C(=O)c2ccc(C(=O)N3CCCCC3)cc2)c(C)c1	20	-0.7	-19	-47	-3.9	0	1	-3	4.5	-2
COc1cccc2cc(-c3cn4ccc(C)cc4n3)c(=O)oc12	-6	-3.3	2	4	-5.1	3	53	-6	1.0	-18
O=C(OCc1ccccc1F)c1ccc2c(c1)OCCO2	1	-2.0	·	·	·	0	-10	7	-6.1	-1
NNS(=O)(=O)c1ccc(Sc2ccccn2)c([N+](=O)[O-])c1	-5	0.5	·	·	·	2	4	6	0.8	2
CCC(CC)c1nnc(NC(=O)[C@@H](NC(=O)c2cccc(C)c2)C(C)C)s1	28	0.4	2	8	2.1	-4	-9	2	4.4	-7
O=C(Cn1cnc2c(cnn2-c2ccccc2Cl)c1=O)N1CCc2ccccc21	16	-0.1	·	·	·	-1	9	-8	-0.4	-1
O=C(CCc1ccccc1)NC(NC(=S)Nc1ccc(Cl)cc1)C(Cl)(Cl)Cl (stereo not drawn)	54	0.0	·	·	·	-4	11	-1	0.9	23
C/C(=N\Nc1nc(-c2ccccn2)nc2ccccc12)c1ccc(F)cc1	34	0.4	·	·	·	-14	1	10	-4.9	87*
O=S(=O)(NCc1ccc(Cl)cc1)NCc1ccc(Cl)cc1	-4	-0.8	3	13	3.7	-5	-2	0	0.6	1
O=C(COc1ccccc1)NCc1ccc(-n2cccc2)cc1	21	1.0	3	3	-1.0	·	-1	-4	2.8	5
Cc1cc(Br)ccc1NS(=O)(=O)c1c(C)[nH]c(=O)[nH]c1=O	-16	0.4	0	-3	-2.0	-8	·	-2	-2.3	-5
CCOC(=O)C1(CCOC)CCN(C(=O)c2ccccc2-c2cccc(C)c2)CC1	22	0.9	-6	-15	-1.1	16	-6	-4	-3.0	-2
O=C(Cc1ccc(S(=O)(=O)N2CCOCC2)s1)Nc1ccc(S(=O)(=O)N2CCCCC2)cc1	-13	0.3	·	·	·	-3	2	6	0.8	0
O=S(=O)(Cc1cc(Cl)nc(-c2ccncc2)n1)c1ccccc1	-37	-0.3	-11	-28	-5.5	57	-9	25	-2.1	·
C/C(CC(=O)Nc1ccc(N(C)C)cc1)=N\NC(=O)c1ccccc1F	-3	0.2	7	5	0.7	87*	1	-2	-1.6	1
O=C(CNC(=O)c1cccs1)c1ccc([N+](=O)[O-])cc1	-13	-1.2	·	·	·	2	-8	-2	0.2	-2
COc1ccc(-c2ccc(=O)n(CC(=O)Nc3ccc(C(=O)NC4CC4)cc3)n2)cc1OC	-11	0.0	·	·	·	-3	0	2	4.0	-7
c1ccc2c(c1)-c1cccc3c1c-2cc1ccccc13	·	-0.5	·	·	·	-1	·	·	-5.7	4
O=C(c1ccccc1)N1CCN(c2ccccc2F)CC1	-5	2.5	·	·	·	·	-11	-2	0.0	0
Cc1csc(NC(=O)C2CCCN2C(=O)OCC(C)C)n1 (stereo not drawn)	-2	0.3	·	·	·	-2	0	12	-1.9	-3
CN1C(=O)C(C)(C)c2cc(S(=O)(=O)NCc3ccc(Cl)cc3)ccc21	41	0.3	-13	-21	-1.0	-2	10	0	7.7	-5
CCO[C@@H]1OC(C(=O)NC2CC2)=C[C@H](C)[C@H]1CCCO	-6	-0.6	18	7	3.4	-8	-5	0	-1.5	-3
COc1ccc(NC(C)=O)cc1NC(=O)CSc1nc2ncccc2[nH]1	4	-0.3	·	·	·	-7	-2	-6	-0.6	1
Nc1c(C(=O)Nc2ccccc2)sc2nc3c(c(-c4ccco4)c12)CCC3	23	-0.5	·	·	·	-5	-2	17	-1.5	2
Cc1cccc(N2CCN(C(=O)C3CCN(S(=O)(=O)c4cccnc4)CC3)CC2)c1C	16	-0.4	3	-4	-3.3	·	1	8	2.6	5
Following part.
SMILES	T cruzi inh	A1 inh	rRNA inh HTS	rRNA inh HTS OD600	rRNA inh HTS RFP	ALR inh	Calb FLC	B2AR ag	LANA-H2A inh	Beta cell apopt
Cn1c(Cn2cnc3ccccc32)nnc1SCC(=O)CC(=O)Nc1ccccc1	10	-0.1	·	·	·	·	6	2	1.4	3
Cc1ccc(S(=O)(=O)NCC(=O)OCc2csc(-c3ccccc3)n2)cc1	-5	-0.3	·	·	·	17	3	11	-4.6	-5
Cc1cc2c(cc1S(=O)(=O)Nc1cccc(C)c1C)n(C)c(=O)c(=O)n2C	-7	0.2	2	-6	-2.0	9	-5	-1	-3.1	4
CC(C)C(NC(=O)c1ccc(Br)cc1)C(=O)NC1=NCCS1 (stereo not drawn)	6	0.1	13	12	2.3	-6	-16	-2	-1.1	0
CC1CCN(c2nc3c(c(=O)[nH]c(=O)n3C)n2Cc2ccccc2Cl)CC1	19	·	2	3	1.1	·	10	5	·	·
COc1cccc(OCc2nn[nH]n2)c1	-6	-0.8	7	1	-1.2	-5	-2	6	0.6	0
Cc1cc(C)nc(-n2ncc3c2CC(C)CC3=O)n1 (stereo not drawn)	0	0.7	14	2	3.1	-4	-1	2	0.8	0
NC(=O)C1CCN(CC(=O)Nc2cc(Cl)ccc2Oc2ccccc2)CC1	1	0.1	-26	-37	-8.6	4	-13	5	-3.5	-8
Cc1cc(=O)[nH]c(=S)[nH]1	-6	-0.4	13	12	-0.5	19	·	-10	-15&-5.2	·
CCOC(=O)c1cnc2oc3ccccc3n2c1=O	-8	0.5	6	9	7.3	·	4	12	-7.2	-4
CN1CCN(NC(=O)/C=C/c2cccc([N+](=O)[O-])c2)CC1	40	0.2	4	3	-2.6	34	5	-1	-2.6	0
CCOc1cc(N2CCOCC2)c(OCC)cc1NC(=O)CN1CCN(Cc2ccc3c(c2)OCO3)CC1	32	1.0	12	11	1.9	21	-11	3	8.1	5
Clc1ccc(Nc2nc(NCCN3CCOCC3)nc(N3CCOCC3)n2)cc1	22	1.6	·	·	·	-4	36	10	-4.9	-7
Cc1ccsc1C(C(=O)NCc1ccccc1)N(C(=O)c1csnn1)c1ccccc1 (stereo not drawn)	9	1.1	6	10	-1.8	-3	-10	-1	1.6	-5
CCCCCCc1cc2cc(-c3nnc(-c4ccccc4OC)o3)c(=O)oc2cc1O	1	0.0	·	·	·	-1	-3	i	10*	·
CCn1c(COc2ccc3c(c2)CCCC3)nnc1SCC(=O)Nc1nccs1	2	-0.8	10	4	-0.6	2	-7	3	0.0	-1
Cc1cc2oc(C(=O)NCc3ccncc3)c(C)c2cc1C	4	0.1	-35	-61	-5.7	-21	20	2	6.8	-1
Cc1ccc(SCC(=O)N(C)CC(=O)Nc2cccc(F)c2)c(C)c1	-24	-1.3	-1	-37	-2.4	-6	0	-10	0.3	-8
O=c1c2ccccc2nc2sc(Nc3ccc(F)cc3)nn12	·	-7.7	18	17	-4.2	-16	·	-4	-0.1	11
O=C(O)c1c(F)c(F)cc2ccccc12	0	-0.8	-5	-16	-7.7	-3	-2	-2	0.8	2
N#Cc1ccc(OCC(=O)Nc2cc(S(=O)(=O)N3CCOCC3)ccc2N2CCOCC2)cc1	-4	-0.7	2	-4	-2.0	·	-1	4	-2.3	3
COc1ccc(N(C(=O)c2ccncc2)S(=O)(=O)c2ccccc2)cc1	-19	0.3	5	3	-1.0	7	-10	2	3.2	-8
CC(=O)Cc1nsc(NC(=O)c2cccs2)n1	-7	-4.0	·	·	·	-1	14	-5	3.1	2

The list is partial; rates above refer to the full screens.
